Screening results: PubChem BioAssay, several laboratories
Insulin prom inh: inhibitors of insulin promoter-driven GFP, primary screen, imaging, TRM-6 cells (human fetal islet line), eGFP reporter, cell count; reporter expression induced with tamoxifen; inhibition, % at 2 µM; 130,000 compounds, 0.9% hits; AID 1273, 2008;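 active = inhibition above the mean plus 3 SD, with well images judged a real hit on visual review, cut at about 60% in these data, passing the limit was not always enough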
PKD1 inh: inhibitors of human PKD1 kinase, biochemical, fluorescence polarization | PKD1 kinase fluorescence polarization assay | inhibition, %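 (about 10 µM by stock and volumes)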 | 200,000 compounds, 0.056% hits | AID 797, 2007;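 active = inhibition of 50% or more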;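 note: controls were vehicle for no effect and a reference inhibitor for full effect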
HSV replic up: enhancers of HSV replication in host cells, fold increase, host cell viability; HSV replication augmentation in cells; 220,000 compounds, 0.005% hits; maximum fold increase;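 active = peak rise of 1.5-fold or more in the series; tested in PC3 cells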;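 note: first round at 10 µM; read as green reporter fluorescence; hits show the peak of a series up to 25 µM; 1 = signal of infected wells without compound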
RGS16-Gao: modulators of RGS16 binding to Galphao, primary screen, biochemical, human proteins, multiplexed bead flow cytometry; Regulator of G-protein signaling 16 (Homo sapiens) + Guanine nucleotide-binding protein …; bead-based flow cytometry RGS16-Galphao binding, fluorescence; actives lie on both sides; binding response (% of control), % at 10 µM; 220,000 compounds, 0.38% hits;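 active = below 25% or above 175%, edge rows of some plates excepted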;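 note: Galphao activated by GDP with aluminum fluoride before binding; 100% = wells without compound and 0% = beads without RGS; some results beyond the cut were filed as inactive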
Target sequence (O15492 whole entry, looked up): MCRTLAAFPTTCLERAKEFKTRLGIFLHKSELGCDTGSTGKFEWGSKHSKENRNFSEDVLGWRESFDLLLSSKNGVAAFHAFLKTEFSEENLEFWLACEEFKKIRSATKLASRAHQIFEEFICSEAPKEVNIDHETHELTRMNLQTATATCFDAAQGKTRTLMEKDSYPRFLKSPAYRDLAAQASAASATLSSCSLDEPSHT
Target sequence (P09471 whole entry, looked up): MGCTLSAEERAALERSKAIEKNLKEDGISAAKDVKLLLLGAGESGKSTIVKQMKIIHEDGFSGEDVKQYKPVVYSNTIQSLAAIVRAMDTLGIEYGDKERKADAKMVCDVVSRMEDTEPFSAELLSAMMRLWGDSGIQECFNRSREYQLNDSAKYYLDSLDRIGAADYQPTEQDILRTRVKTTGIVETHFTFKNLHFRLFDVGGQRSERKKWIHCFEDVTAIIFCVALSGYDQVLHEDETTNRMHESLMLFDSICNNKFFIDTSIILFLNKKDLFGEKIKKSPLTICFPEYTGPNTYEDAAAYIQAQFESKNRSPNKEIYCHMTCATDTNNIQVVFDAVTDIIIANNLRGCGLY
GALR2 ag: GALR2 receptor agonists, primary screen, cell-based | Galanin receptor type 2 (Homo sapiens), O43603 | 140,000 compounds, 0.48% hits | activation, %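 (tested at 5 µM)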 | GALR2-expressing cells, agonist activation read-out;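 active = above mean plus 3 SD of all compounds, about 5% in these data, not always enough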;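 note: 0% = vehicle buffer wells and 100% = reference agonist at full effect; tested in CHO reporter cells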
Target sequence (O43603 whole entry, looked up): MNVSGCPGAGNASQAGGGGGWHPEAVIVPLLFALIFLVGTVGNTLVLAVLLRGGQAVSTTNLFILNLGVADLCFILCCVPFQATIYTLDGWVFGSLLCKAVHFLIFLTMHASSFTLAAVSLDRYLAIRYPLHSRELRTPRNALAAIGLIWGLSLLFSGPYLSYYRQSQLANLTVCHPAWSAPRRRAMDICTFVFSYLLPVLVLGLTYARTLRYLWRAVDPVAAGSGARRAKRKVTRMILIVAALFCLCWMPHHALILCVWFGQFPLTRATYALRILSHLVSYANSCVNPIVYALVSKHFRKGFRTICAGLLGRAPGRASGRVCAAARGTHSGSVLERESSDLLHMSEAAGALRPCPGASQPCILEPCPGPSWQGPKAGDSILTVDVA
Insulin prom inh cell count: second read-out of Insulin prom inh, no call of its own (marks repeat the call); normalized cell count, %; measured here: cell count, toxicity; reference of the scale not given here;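 cells exposed to compound for 48 h; stained nuclei by imaging scaled within each plate; lower means fewer cells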
HSV replic up primary fold: further read-out of HSV replic up, marked with its call; fold increase; compound at 10 µM; measured here: primary screen fold increase 10 uM; tested in PC3 cells;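 GFP signal in the first replicate; 1 = infected wells without compound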
Active calls of the source: *; i = inactive; . = no result given; [ ] = remark or other dose.

SMILES | Insulin prom inh | Insulin prom inh cell count | PKD1 inh | HSV replic up | HSV replic up primary fold | RGS16-Gao | GALR2 ag
N#C/C(=C\c1ccc(OCc2cccc(C(=O)O)c2)cc1)C(=O)NCc1ccco1 | . | . | . | i | 0.8 | 103 | .
CCOC(=O)c1cnc2c(c(C)nn2C)c1Oc1cc(Cl)cc(Cl)c1 | . | . | . | i | 0.9 | 102 | .
COc1ccccc1C1N(c2cc(Cl)ccc2OC)C(=O)C2CCCN21 (configuration not stated) | . | . | -2 | i | 1 | 102 | -2.0
COc1ccccc1-c1c(C)nn2c(N3CCC(C)CC3)cc(C)nc12 | . | . | . | i | 1.1 | 11* | .
CCOC(=O)N1CCN(c2c(NCc3ccccn3)c(=O)c2=O)CC1 | . | . | 13 | i | 1 | 102 | -3.1
CCOC(=O)c1ccc(NC(=O)CCNc2c(N3CCCC3)c(=O)c2=O)cc1 | 41 | 120 | 0 | i | 1.1 | 102 | -3.3
c1ccc(-n2nnnc2SCc2cn3cccnc3n2)cc1 | . | . | -9 | i | 1.1 | 96 | -1.5
CCOc1ccc2nc(COC(=O)c3cccc([N+](=O)[O-])c3)c(C(C)=O)[n+]([O-])c2c1 | . | . | . | i | 0.92 | 105 | .
O=C1c2nccnc2C(=O)N1c1ccc(C(F)(F)F)cc1 | . | . | 1 | i | 0.98 | 95 | .
Cn1c(=O)c2c(ncn2CC(=O)N2CCCc3ccccc32)n(C)c1=O | 0 | 112 | -4 | i | 0.88 | 93 | -1.0
COc1ccc(S(=O)(=O)NCC(=O)O)cc1C(=O)NC1CCCCC1 | -26 | 89 | -5 | i | 0.95 | 86 | -2.6
CCSc1nc(-c2ccccc2)c(C#N)c(=O)[nH]1 | -5 | 91 | -3 | i | 0.99 | 102 | -1.5
C=CCSc1nc2c(c(=O)[nH]c(=O)n2C)n1C(C)C | 3 | 109 | -3 | i | 0.9 | 103 | 0.8
O=S(=O)(c1cnc(Cl)c(Cl)c1)N1CCN(c2ncccn2)CC1 | . | . | . | i | 0.86 | 101 | .
Cc1ccc([N+](=O)[O-])cc1S(=O)(=O)N1CCCCC1C(=O)O (configuration not stated) | -59 | 61 | -2 | i | 0.99 | 101 | .
COc1ccc(C2CC(=O)N3CN(Cc4ccco4)CSC3=C2C#N)cc1 (configuration not stated) | . | . | -3 | i | 0.74 | 80 | -1.6
Cc1cccc(CSc2ncccc2C(=O)O)c1 | 33 | 107 | -7 | i | 0.97 | 285*[activator] | -0.8
Cc1ccc(C(=O)N/C(=C/C=C/c2ccccc2)C(=O)NCc2ccco2)cc1 | -13 | 152 | 1 | i | 0.9 | 102 | -2.7
COc1ccc(S(=O)(=O)Nc2ccccc2)cc1OC | 22 | 81 | -5 | i | 1 | 98 | -2.1
Cc1cc(C)c2cc(CN(Cc3nnnn3C3CCCCC3)CC3CCCO3)c(=O)[nH]c2c1 (configuration not stated) | . | . | -7 | i | 0.77 | 94 | -2.3
Cn1cnnc1SCCNS(=O)(=O)c1ccccc1 | -21 | 117 | 1 | i | 0.92 | 103 | -0.4
Cc1cc(C(=O)NCc2ccccc2)no1 | 39 | 100 | 3 | i | 1 | 100 | -1.2
O=C(O)c1cc(-c2ccccc2)nc2nc(N3CCCCC3)sc12 | . | . | -11 | i | 0.87 | 95 | .
O=C1CCC(CCC(=O)N2CCCC(C(=O)c3cccc(C(F)(F)F)c3)C2)=NN1 (configuration not stated) | . | . | 7 | i | 1.1 | 88 | .
O=C(C[n+]1ccc(-c2nnc3n2CCC3)cc1)c1ccc(Cl)cc1 | -75 | 119 | 2 | i | 0.97 | 103 | 0.6
COC(=O)c1cc(OC)nc(OC)c1 | . | . | . | i | 1 | 96 | .
Cc1nc2cc(NS(=O)(=O)c3c(C)c(C)cc(C)c3C)ccc2s1 | -23 | 93 | 9 | i | 0.92 | . | -1.4
CCN1C(=O)/C(=C/N(C)c2ccccc2)OC1=S | 20 | 117 | 0 | i | 0.92 | 101 | -1.6
CC(NC(=O)Nc1ccc(Cl)c(Cl)c1)C(c1ccccc1)N1CCOCC1 (configuration not stated) | -20 | 106 | 5 | i | 0.97 | 103 | 8.7*
CCOC(=O)N/C(N)=N/c1nc2ccccc2s1 | . | . | -13 | i | 0.93 | 111 | -2.4
COn1c(=S)[nH]c2ccccc2c1=O | -71 | 142 | 10 | i | 1.2 | 107 | -2.4
O=C(Nc1ccccc1C(=O)N1CCCCC1)c1cccc(S(=O)(=O)N2CCOCC2)c1 | -25 | 105 | -2 | i | 0.82 | 99 | 0.2
Cc1nc2scc(-c3cccs3)c2c(=O)[nH]1 | 5 | 95 | 1 | i | 1.1 | 103 | -4.1
COc1ccc(-n2ccnc2SCC(=O)NCc2ccc3c(c2)OCO3)cc1 | -80 | 96 | 0 | i | 1 | 96 | -2.4
Cc1cc(C(=O)N(NC(=O)C(C)C)c2ccccc2)cs1 | . | . | 2 | i | 1.1 | 105 | .
O=C(Nc1nnc(-c2ccc3c(c2)CCCC3)o1)c1c(F)cccc1F | 36 | 78 | -3 | i | 0.93 | 106 | .
O=c1[nH]c(SCc2ccccc2)nc2[nH]ncc12 | . | . | -9 | i | 0.93 | 98 | .
Cc1cc(C)cc(NC(=O)N2CCCN(c3c(Cl)cncc3Cl)CC2)c1 | . | . | . | i | 0.91 | 101 | .
COc1cc(OC)cc(-c2nc(-c3ccccc3OC)no2)c1 | -186 | 101 | -1 | i | 0.81 | 3.8* | -1.3
C/C(=N\NC(=O)c1ccc(Cn2cc(Br)cn2)o1)c1cccc(NC(=O)C(C)C)c1 | -33 | 133 | -6 | i | 0.96 | 115 | 0.1
Cc1cc(NC(=O)c2ccc(S(=O)(=O)N(C)C)cc2)n(-c2ccccn2)n1 | 50 | 107 | -5 | i | 0.94 | 104 | -2.5
CC(NC(=O)OC(C)(C)C)C(=O)N1CCCC1C(=O)NC(Cc1ccccc1)C(N)=O (configuration not stated) | 6 | 49 | -7 | i | 0.78 | 108 | -1.0
COc1ccc(S(=O)(=O)NCC2CCCN(CC(C)(C)C)C2)cc1 (configuration not stated) | . | . | 3 | i | 1.1 | 102 | .
COc1ccc(Cc2nnc(N/N=C/c3ccccc3O)[nH]c2=O)cc1OC | . | . | -7 | i | 0.79 | 125 | -1.4
O=C(Nc1ccc(Cl)cc1Cl)C1=Cc2ccccc2OC1 | -3 | 92 | -4 | i | 1 | 91 | -3.3
C/C(=N\NC=O)c1ccncc1 | . | . | 7 | i | 0.91 | 105 | .
Cn1nc(-c2ccc(Cl)cc2)c2cc(C(=O)N3CCN(C(=O)c4ccco4)CC3)sc21 | . | . | -7 | i | 0.86 | 87 | -1.2
CCOc1cc(NC(=O)c2ccco2)c(OCC)cc1NC(=O)CCC(=O)NCc1cccnc1 | . | . | -4 | i | 1 | 98 | -1.9
CCOC(=O)C(C(=O)OCC)C(CC(=O)C1CC1)c1ccccc1 (configuration not stated) | -88 | 84 | -10 | i | 0.91 | 138 | -0.3
Cc1cccc(NC(=O)CSc2nnc(CCC(=O)Nc3ccc(C)c(Cl)c3)n2C)c1 | -17 | 74 | -4 | i | 0.89 | 98 | -3.1
Going on with the list:
SMILES | Insulin prom inh | Insulin prom inh cell count | PKD1 inh | HSV replic up | HSV replic up primary fold | RGS16-Gao | GALR2 ag
Cc1cccc(OCCNC(=O)c2ccc(Oc3ccc(C(F)(F)F)cc3[N+](=O)[O-])cc2)c1 | . | . | -9 | i | 1.2 | 103 | -1.7
COC(=O)Nc1ccc2c(c1)ncn2C1CCCCC1 | . | . | -3 | i | 0.99 | 101 | -0.8
O=C(Nc1ccc2[nH]c(=O)[nH]c2c1)C(F)(F)F | . | . | 3 | i | 0.96 | 94 | .
O=C(CCCC(=O)N(CC(=O)NC1CCCC1)Cc1ccc(F)cc1)Nc1ccccn1 | -57 | 96 | 16 | i | 1 | 100 | -1.3
CC(C)(C)C1CCC2(CC1)NC(=S)N(c1ccccc1)N2 (configuration not stated) | -288 | 78 | -1 | i | 0.95 | 103 | -2.5
O=[N+]([O-])c1ccc(-c2nn(-c3ccccc3)cc2/C=N/n2c(-c3cccs3)n[nH]c2=S)cc1 | . | . | . | i | 0.85 | 92 | .
C=CCSc1cc(C)nc2c(-c3ccccc3)c(C)nn12 | . | . | . | i | 0.94 | 101 | .
C/C(=N\NC(=O)c1cccc(S(=O)(=O)Nc2cccc(Cl)c2)c1)c1cccs1 | . | . | -10 | i | 0.89 | 127 | -1.0
CSc1nc(=O)n2cc(C)ccc2n1 | 8 | 55 | 2 | i | 0.88 | 103 | .
COC(=O)C1=C(C)N(c2cccc(C(C)=O)c2)C(=O)C1 | -475 | 58 | -14 | i | 0.93 | 101 | -2.0
COc1ccc(N2CCN(Cc3nc(N)nc(Nc4ccccc4OC)n3)CC2)cc1 | . | . | 0 | i | 0.82 | 107 | -1.9
CCOc1ccc(NC(=S)NCc2cccnc2)cc1 | . | . | . | i | 0.88 | 104 | .
CCOC(=O)N1CCN(C(=O)C2CCC(C(=O)N3CCN(C(=O)OCC)CC3)CC2)CC1 (configuration not stated) | -172 | 78 | -5 | . | . | . | -0.5
COc1ccccc1NC(=O)N1CCN(Cc2ccc3c(c2)OCO3)CC1 | . | . | . | i | 0.83 | 104 | .
Cc1cc2ncn(CC3CC3(Cl)Cl)c2cc1C (configuration not stated) | . | . | 1 | i | 0.98 | 102 | .
CC(=O)c1c(N2CCN(c3ccccc3)CC2)nc(=S)n(-c2ccccc2)c1C | -45 | 86 | -1 | i | 1.1 | 97 | -2.4
Cc1cc(C)cc(OCC(=O)OC/C(O)=C(\C#N)c2nc3ccccc3[nH]2)c1 | -36 | 43 | 1 | i | 1 | 102 | 0.0
N#C/C(=C/c1ccc(N2CCOCC2)c([N+](=O)[O-])c1)C(N)=O | . | . | -7 | i | 1.2 | 92 | -1.1
Cc1ccc(C(CC(=O)c2ccc(Cl)cc2)C(=O)O)cc1 (configuration not stated) | 31 | 102 | -5 | . | . | 104 | .
Cc1ccnc2c(N3C(=O)C4C5C=CC(C5)C4(C)C3=O)cccc12 (configuration not stated) | . | . | -9 | i | 0.98 | 111 | -1.0
Cc1cc(=O)n(-c2ccccc2Cl)[nH]1 | -7 | 76 | -3 | i | 0.99 | 99 | .
Cc1cccc(NC(=O)c2nc[nH]c2C(=O)N[C@@H](C)C(=O)OC(C)(C)C)c1 | . | . | . | i | 0.81 | 108 | .
O=C(NCc1ccco1)C(=O)c1cn(CC(=O)N2CCCC2)c2ccccc12 | -85 | 93 | 0 | . | . | 105 | .
O=c1cc(-c2ccccc2Cl)oc2c(NS(=O)(=O)c3cccc4nsnc34)ccc(O)c12 | . | . | . | i | 0.95 | 99 | .
CCOC(=O)c1nnn(-c2nonc2-n2cccc2)c1CCl | 19 | 94 | -5 | i | 0.86 | 97 | -1.0
C/C(=N/O)c1ccc(N2C(=O)C3C4C=CC(C3C2=O)C2C3C(=O)N(c5ccc(/C(C)=N/O)cc5)C(=O)C3C42)cc1 (configuration not stated) | -17 | 50 | -3 | i | 0.75 | 100 | .

Among those listed so far, these contain an aryl thioether with sulfur outside any ring:
SMILES | Insulin prom inh | Insulin prom inh cell count | PKD1 inh | HSV replic up | HSV replic up primary fold | RGS16-Gao | GALR2 ag
c1ccc(-n2nnnc2SCc2cn3cccnc3n2)cc1 | . | . | -9 | i | 1.1 | 96 | -1.5
CCSc1nc(-c2ccccc2)c(C#N)c(=O)[nH]1 | -5 | 91 | -3 | i | 0.99 | 102 | -1.5
C=CCSc1nc2c(c(=O)[nH]c(=O)n2C)n1C(C)C | 3 | 109 | -3 | i | 0.9 | 103 | 0.8
Cc1cccc(CSc2ncccc2C(=O)O)c1 | 33 | 107 | -7 | i | 0.97 | 285*[activator] | -0.8
Cn1cnnc1SCCNS(=O)(=O)c1ccccc1 | -21 | 117 | 1 | i | 0.92 | 103 | -0.4
COc1ccc(-n2ccnc2SCC(=O)NCc2ccc3c(c2)OCO3)cc1 | -80 | 96 | 0 | i | 1 | 96 | -2.4
O=c1[nH]c(SCc2ccccc2)nc2[nH]ncc12 | . | . | -9 | i | 0.93 | 98 | .
Cc1cccc(NC(=O)CSc2nnc(CCC(=O)Nc3ccc(C)c(Cl)c3)n2C)c1 | -17 | 74 | -4 | i | 0.89 | 98 | -3.1
C=CCSc1cc(C)nc2c(-c3ccccc3)c(C)nn12 | . | . | . | i | 0.94 | 101 | .
CSc1nc(=O)n2cc(C)ccc2n1 | 8 | 55 | 2 | i | 0.88 | 103 | .
